Screening data (PubChem)
VDR inh: vitamin D3 receptor (human) inhibition. 400,000 tested, 0.93% active. Potency, µM, without a hit: max response, negative = inhibition, usual class: inhibitors. P11473. AID 504847. VDR-SRC2-3 peptide fluorescence polarization, 2 h; active means well fitted inhibition curve with a large enough effect; inconclusive means small, poorly fitted or top-dose-only effect, or another doubt; inactive means no such curve, though single readings can be large or run the other way; further: series mostly up to about 120 µM
Target sequence (P11473 whole entry, looked up): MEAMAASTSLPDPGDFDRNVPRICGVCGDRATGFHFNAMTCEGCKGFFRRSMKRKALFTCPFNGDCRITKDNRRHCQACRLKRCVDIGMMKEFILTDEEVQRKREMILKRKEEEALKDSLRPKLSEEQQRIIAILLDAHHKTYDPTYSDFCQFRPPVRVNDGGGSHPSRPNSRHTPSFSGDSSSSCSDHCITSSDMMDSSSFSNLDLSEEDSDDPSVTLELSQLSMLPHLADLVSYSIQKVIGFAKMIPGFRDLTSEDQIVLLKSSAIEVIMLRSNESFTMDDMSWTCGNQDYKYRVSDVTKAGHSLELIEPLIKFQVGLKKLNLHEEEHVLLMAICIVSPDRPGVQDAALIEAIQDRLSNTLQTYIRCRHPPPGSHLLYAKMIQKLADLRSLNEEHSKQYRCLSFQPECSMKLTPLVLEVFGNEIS
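Compounds are added to VDR with labelled SRC2-3 coactivator peptide and held 2 h at room temperature. Inhibition of the VDR–peptide interaction is then read as a change in fluorescence polarization.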
* = called active by the depositor; ? = inconclusive; [ ] = another dose, or the depositor's remark. On the % scale 0 is the no-effect control and ±100 the full control effect; potency means the concentration at half of the fitted maximal effect.

SMILES,VDR inh
Cc1nn(CC(=O)NCC(C)c2ccccc2)c(=O)c2cc3ccccc3n12 (centres undefined),-8.3%
COc1cnc(-c2ccccn2)nc1Sc1c(Cl)cccc1Cl,-4.8%
COc1cc(/C=C(\NC(C)=O)C(=O)Nc2cccc(O)c2)ccc1OC(C)=O,6.1%
C=CCn1c(C(CCCC)CC(O)COCC(C)C)n[nH]c1=S (centres undefined),-20.3%
CCCn1nnnc1NCc1ccccc1C,-11.7%
COc1ccc(CNC(=O)CN(c2ccc(C(C)C)cc2)S(=O)(=O)c2c(C)noc2C)cc1,-13.2%
O=C(c1ccc(Cl)c(Cl)c1)N1CCC(=O)N(C(CO)Cc2ccccc2)CC1 (centres undefined),?
Fc1ccc2nc3[nH]c4ccccc4c3nc2c1,4.0%
COc1ccc(NC(=O)c2c(C)oc3ccc(O)c(CN4CCN(Cc5ccccc5)CC4)c23)cc1,6.9%
O=S1(=O)C=C(Sc2nc3cc(Cl)ccc3o2)c2ccccc21,?
CN(C)S(=O)(=O)c1ccc(N2CCCC2)c(C(=O)NC(c2ccccc2)c2ccccc2)c1,-4.7%
COc1ccc(N2C(=O)CCC(C(=O)N3CCOCC3)C2c2ccc(F)cc2)cc1 (centres undefined),-3.8%

The results go on:
SMILES,VDR inh
N#C/C(=C/c1cccs1)c1ccccn1,0.4%
Cc1ccc(O)c(Nc2nc3ccccc3c3nncn23)c1,-1.0%
Cc1c(-c2ccccc2)nc2ccccc2c1C(=O)Oc1ccc([N+](=O)[O-])cc1,6.3%
Cc1cc(C)c2c(n1)nn1c(C3CC3)cc(C(F)(F)F)nc21,-9.4%
CC(C)C(=O)Nc1cccc(NC(=O)c2cccc(F)c2)c1,-6.5%
CCOC(=O)COn1c2c(c3c4no[n+]([O-])c4ccc31)CCCC2,3.0%
Cc1nc[nH]c(=O)c1Br,-6.3%
CCCN(C(=O)Cc1c(C(=O)O)n(C)c2ccccc12)c1cccc(C)c1,-13.3%
O=C(COC(=O)c1c(F)cccc1F)NCc1cccs1,-9.5%
COc1ccc(CCNC(=O)C2CCCN2C(=O)Nc2ccc(F)cc2)cc1OC (centres undefined),-7.4%
CCCCCCC(=O)NNC(=O)c1c(O)c2ccccc2n(CC)c1=O,39.9%[activator]
CCOC(=O)c1ccc2c(c1)N(Cc1cccc(C(F)(F)F)c1)C(=O)c1ccccc1S2(=O)=O,9.8%

Later entries:
SMILES,VDR inh
CC(=O)Nc1ccc(S(=O)(=O)NCC2CCC(C(=O)NC3CCCCCC3)CC2)cc1 (centres undefined),-11.0%
Cc1ccc(OCc2cc(C(=O)N3CCCC3)no2)cn1,10.2%
COc1ccc(NC(=O)C2CCCN(c3ncnc4onc(-c5ccc(F)cc5)c34)C2)cc1 (centres undefined),6.4%
Cc1cc(NC(=O)CN2C(=O)C3CC=CCC3C2=O)no1 (centres undefined),0.2%
COC(=O)c1cc2c(ccn2C)n1C,-5.2%
CCCCCSc1nnc(N)s1,-10.0%
COCc1cc(C)nc2sc(C(=O)NCCO)c(-n3cccc3)c12,-15.0%
Cc1ccc(S(=O)(=O)c2nc(S(C)(=O)=O)sc2NCC2CCCO2)cc1 (centres undefined),16.8%
CC(=O)c1ccc[n+](CC(=O)NC(C)c2ccccc2)c1 (centres undefined),-8.3%
Cc1ccc(NC(=O)C2CCCN2C(=O)OCc2ccccc2)c(O)c1 (centres undefined),-0.5%
O=C(NNc1ncc(C(F)(F)F)cc1Cl)c1c(Cl)cccc1Cl,-3.3%
COC(=O)C1=C(NC(=O)c2ccc(Br)cc2)CCS1,-7.1%

Remaining list, next part.
SMILES,VDR inh
CCc1cccc(C)c1NC(=O)Nc1ccc2c(c1)OCO2,-15.6%
Cc1ccc(C)c(NC(=O)CCC(=O)NN=C2CCCC2)c1,5.5%
Cc1c(Cl)cccc1NC(=S)N=Nc1c(O)n(CN2CCOCC2)c2ccccc12,-3.5%
Cc1nc2ccccn2c(=O)c1NC(=O)c1ccc(F)c(F)c1,13.4%
CC(C)COC(=O)C(N)C(C(=O)OCC(C)C)c1ccccc1 (centres undefined),13.6%
Cc1ccc(NC(=O)/C(C#N)=C/c2ccc(C(C)C)cc2)cc1C,-10.0%
CCOc1ncccc1C(=O)OCC(=O)Nc1ccc(-c2nc3ccc(C)cc3s2)cc1,-11.9%
O=C(CSc1nc(C2CC2)nc2ccccc12)Nc1ccccc1Cl,3.4%
O=C(NCc1cccc(Cl)c1)c1ccco1,-5.1%
CN(CCCNC(=O)c1ccc(/C=N/O)nc1)CCCN(C)Cc1ccccc1,8.5%
CCOc1ccc(S(=O)(=O)N2CCC(C(=O)NCC3CCCO3)CC2)cc1Cl (centres undefined),-1.5%
Cc1ccc(C(=O)NCCNC(=O)CN2CCOCC2)cc1,1.1%

The results go on.
SMILES,VDR inh
Cc1ccc(-n2nc3ccc(NC(=O)/C=C/c4ccco4)cc3n2)cc1C,-6.8%
O=C(COc1ccc(C(=S)N2CCCC2)cc1)Nc1ccccc1C(F)(F)F,-9.8%
O=C(COC(=O)C1CC2C=CC1C2)Nc1cccc(S(=O)(=O)N2CCOCC2)c1 (centres undefined),0.5%
O=[N+]([O-])c1cc([N+](=O)[O-])c(Oc2c(F)cc(F)cc2F)cc1NN1CCCCC1,0.6%
COc1ccc(-n2c(=O)[nH]c3c(C(N)=O)nc(C4CCCCC4)nc32)cc1,-6.1%
Cn1ncc2c(Nc3ccc(O)cc3)nc(Cl)nc21,16.6%
CC(=O)C(C)n1c(CN2CCN(C(=O)c3ccco3)CC2)nc2c1c(=O)n(C)c(=O)n2C (centres undefined),-11.4%
Cc1ccc(-n2nc(C)c(C(=O)NCCCN3CCN(c4cccc(Cl)c4)CC3)c2-n2cccc2)cc1,10.3%
Oc1ccc(Cc2ccc(Cl)cc2)c(O)c1,-2.6%
CN1CCN(/N=C/c2ccc(C#N)cc2)CC1,-1.5%
Nc1nnnn1CC(=O)N/N=C/c1cccs1,-17.1%
CCCCN(CCCC)C(=O)/C=C/c1cccc([N+](=O)[O-])c1,-11.6%

The results go on.
SMILES,VDR inh
CCOc1ccc(Nc2nc3cc(Cl)c(Cl)cc3nc2-n2nc(C)cc2C)cc1,-6.6%
CNC(=O)c1sccc1-n1cccc1,-18.6%
O=C(Nc1ccc(F)cc1)N1CCCCCC1,-12.6%
Oc1c(N=NC(=S)Nc2ccccc2F)c2ccccc2n1Cc1ccccc1F,-14.2%
O=C(CN(CCc1ccccc1)C(=O)CNS(=O)(=O)c1ccc(F)cc1)NCC1CCCO1 (centres undefined),-14.7%
COc1cccc(-c2nn(C)c3sc(C(=O)NCc4ccc5c(c4)OCO5)cc23)c1,-14.8%
COc1ccc(C)cc1S(=O)(=O)NC(C)C(=O)NC1CC1 (centres undefined),5.5%
O=C(NCCCN1CCOCC1)c1ccc(Br)s1,12.1%
Cc1cccc(C)c1OCC(=O)N(Cc1ccco1)Cc1ccco1,10.8%
CCC(Cc1ccccc1)NC(=O)c1csc2c1CCCCC2 (centres undefined),-15.9%
O=[N+]([O-])/C(Cl)=C(/NCCO)C(Cl)=C(Cl)Cl,-12.1%
COCCN(C(=O)COC(=O)CCCOc1ccc(OC)cc1)c1c(N)n(Cc2ccccc2)c(=O)[nH]c1=O,-12.6%

(continued)
SMILES,VDR inh
Cn1c(C2=C(O)CN(c3ccccc3)C2=N)nc2ccccc21,0.3%
CCc1nnc(NC(=O)CCC(=O)N2CCN(C3c4ccccc4-c4ccccc43)CC2)s1,-9.6%
CCn1cc(C(=O)NCc2ccc(C)cc2)c(=O)c2cc(S(=O)(=O)N3CCC(C)CC3)ccc21,-4.6%
Cc1ccc(NC(=O)Nc2nnc(N3CCCC3)s2)c(C)c1,16.2%
COc1ccc(NS(=O)(=O)c2ccc3oc(SC(C)C(N)=O)nc3c2)cc1 (centres undefined),-10.6%
COc1cccc(Cc2n[nH]c(=S)n2Cc2ccco2)c1,8.6%
N#CCSc1nc2sccc2c(=O)n1-c1ccccc1,-3.7%
CCOC(=O)C1CCN(CCC(=O)Nc2cccc(Cl)c2)CC1,9.9%
Cc1ccc2c(CC(=O)Nc3ccc(S(=O)(=O)N4CCCCC4C)cc3)coc2c1C (centres undefined),5.7%
COC(=O)c1scc(-c2ccc(C)cc2)c1S(=O)(=O)Nc1ccc(OC(F)(F)F)cc1,15.0%
Cc1cc(NC(=O)COC(=O)c2oc3c(Cl)cccc3c2C)no1,-6.5%
C=CCNc1nc(C2(C)CC3(CC(C)(C)OC3=O)C(=O)O2)cs1 (centres undefined),8.0%

Further entries follow.
SMILES,VDR inh
O=c1[nH]c(=O)n(C(c2ccccc2)(c2ccccc2)c2ccccc2)cc1N(CCO)CCO,-26.7%
COc1cc(/C=C/C(=O)OCC(=O)N2CCC(C)CC2)ccc1O,-9.9%
COc1ccc(/C(C)=N/NC(=O)c2ccc(CSc3cccc4cccnc34)cc2)cc1OC,0.6%
COC(=O)[C@]1(C)CCC[C@@]2(C)C3CC[C@@]4(C)C[C@]3(CCC21)CC(=O)N4C (some centres undefined),-12.5%
Cc1cc(N)ccc1NC(=O)CN1CCOCC1,-4.7%
CCn1cc(Cl)c(C(=O)Nc2ccc3c(c2)OCCO3)n1,-2.7%
O=C(NCc1ccc(Cl)cc1)c1ccccc1Oc1ccccc1,7.6%
CC1=C(C(=O)Nc2ccccc2)C(c2ccc(F)cc2)n2nc(SCc3cc(C)ccc3C)nc2N1 (centres undefined),-4.0%
CCc1cccc(C)c1NC(=S)NCc1cccn1C,-15.5%
CO[C@]1(C)C[C@H]2O[C@]1(C)n1c3ccccc3c3c4c(c5c6ccccc6n2c5c31)C(=O)N(C)C4,6.9%
CC(C#N)(Nc1ccc(Cl)cc1)c1cccnc1 (centres undefined),-14.3%
COc1ccc(CNC(=O)c2ccc3nc(-c4ccc(F)cc4)c(-c4ccc(F)cc4)nc3c2)cc1,6.6%

The list continues.
SMILES,VDR inh
C[C@@H](C(=O)N[C@@H](Cc1c[nH]c2ccccc12)C(=O)O)n1nnc2ccccc2c1=O,-29.3%
C/C(=N\NC(=O)c1cccc(S(=O)(=O)N2CCOCC2)c1)c1ccc(C)cc1,-16.7%
CCOC(=O)N1CCC(NC(=O)C2CCN(C(=O)N3CC(C)Oc4ccc(C)cc43)CC2)CC1 (centres undefined),25.6%
CC(=O)NCc1ccc(-c2csc(-c3cccs3)n2)cc1,0.6%
CC(C)c1ccc(NC2CCCN(C(=O)CCN3CCCO3)C2)cc1 (centres undefined),-6.2%
CCN1C(=S)SC(=O)C1=C1C=C(C)OC(C)=C1,9.0%
COCCOC(=O)c1c(C)oc2ccc(OC(=O)c3c(OC)cccc3OC)cc12,-4.1%
Cc1ncc(CN2CCN(Cc3ccc(F)cc3)C(CCO)C2)s1 (centres undefined),-22.2%
CC(C)C[C@H](NC(=O)[C@H](CCCCN)NC(=O)CNC(=O)[C@H](CC(C)C)NC(=O)[C@@H](N)C(C)C)C(=O)N[C@@H](CO)C(=O)N[C@@H](CCC(N)=O)C(=O)N[C@@H](CCC(=O)O)C(=O)N[C@@H](CC(C)C)C(=O)N[C@@H](Cc1cnc[nH]1)C(=O)N[C@@H](CCCCN)C(=O)N[C@@H](CC(C)C)C(=O)N[C@@H](CCC(N)=O)C(=O)N[C@H](C(=O)N[C@@H](Cc1ccc(O)cc1)C(=O)N1CCC[C@H]1C(=O)N[C@@H](CCCNC(=N)N)C(=O)N[C@H](C(=O)N[C@@H](CC(N)=O)C(=O)N[C@H](C(=O)NCC(=O)N[C@@H](CO)C(=O)NCC(=O)N[C@H](C(=O)N1CCC[C@H]1C(N)=O)[C@@H](C)O)[C@@H](C)O)[C@@H](C)O)[C@@H](C)O,6.9%
Cc1csc(SCCn2c(Br)nc3c2c(=O)[nH]c(=O)n3C)n1,2.5%
COCCN1CC(C(=O)NCCc2nc(C)c(C)s2)CCC1=O (centres undefined),3.9%
NC(=O)CN1CCN(C2CC(=O)N(CCc3ccccc3)C2=O)CC1 (centres undefined),-1.0%

Other results follow:
SMILES,VDR inh
COc1cc(NC(=O)CC2C(=O)N(c3cccc(C)c3)C(=O)N2Cc2ccc(F)cc2)cc(OC)c1 (centres undefined),11.9%
CCOc1ccc(C2=Nn3c(nnc3-c3ccccc3)SC2)cc1Cl,-7.7%
CC(C)CCNc1nc2c(c(=O)n(Cc3cccc(F)c3)c(=O)n2C)n1C,5.4%
COc1ccc(C(=O)/C=C/Nc2ccc(S(N)(=O)=O)cc2)cc1OC,-15.0%
Cc1c(NC(=O)Nc2cc(Cl)ccc2Cl)c(=O)n(-c2ccccc2)n1C,-15.3%
CSCCC(NS(=O)(=O)c1ccc(Br)cc1)C(=O)OCC(=O)NC1CC1 (centres undefined),-1.1%
N#CC1=C(N)N(c2ccc(F)cc2)C2=C(C1c1ccc(O)cc1)S(=O)(=O)CC2 (centres undefined),3.6%
COc1cccc(NC(=O)c2cccc(N3C(=O)C4CCC(C)CC4C3=O)c2)c1 (centres undefined),18.5%
CN(C(=O)CSc1ncnc2sc(-c3ccccc3)cc12)C1CCS(=O)(=O)C1 (centres undefined),-18.5%

Retrieved by compound from the list above:
SMILES,VDR inh
CO[C@]1(C)C[C@H]2O[C@]1(C)n1c3ccccc3c3c4c(c5c6ccccc6n2c5c31)C(=O)N(C)C4,6.9%
CCOc1ccc(Nc2nc3cc(Cl)c(Cl)cc3nc2-n2nc(C)cc2C)cc1,-6.6%
Cc1cccc(C)c1OCC(=O)N(Cc1ccco1)Cc1ccco1,10.8%
O=C(CSc1nc(C2CC2)nc2ccccc12)Nc1ccccc1Cl,3.4%
COc1cnc(-c2ccccn2)nc1Sc1c(Cl)cccc1Cl,-4.8%

An excerpt. The share of hits here may be higher or lower than overall.
